SARS PLpro yeast = SARS-CoV PLP inhibition in yeast. S. cerevisiae expressing SARS-CoV PLpro, growth rescue; control for the full effect not named in the record. Potency, µM (series often up to 32.9 µM), for the others: at the highest dose activity, positive = growth rescue. 0.19% of 330,000 active; active means well fitted rising curve with a large enough effect; inconclusive means small, poorly fitted or top-dose-only effect; inactive means no such curve, though single readings can be large or run the other way; also: 0% is about no effect; nearly all actives have a fitted effect of over 55% in size; growth read by luminescence after 48 h
2A StopGo = lowers the luciferase signal of an FMDV 2A StopGo reporter | human cells with a luciferase reporter of 2A StopGo recoding; control for the full effect not named in the record | Potency, µM (highest dose often 57.9 µM), for inactives: top-dose signal change, negative = less light | 1.2% of 410,000 active; active = well fitted falling curve with a large enough effect; inconclusive = small, poorly fitted or top-dose-only effect; inactive = no such curve, though single readings can be large or run the other way; tested in HEK293T cells; also: % is scaled to controls: 0 for no effect and ±100 for the full control effect; nearly all actives have a fitted effect of over 45% in size; luciferase light after 4 h
MARV entry inh = inhibitors of Marburg virus binding or cell entry; Marburg virus pseudotyped entry inhibition, cell reporter; control for the full effect not named in the record; about a third of the inactives were read at about 46 µM; Potency, µM (top dose mostly 37.8 µM), for the others: at the highest dose activity change, negative = inhibition, hits mostly inhibitors; 1.8% of 300,000 active; active = well fitted inhibition curve with a large enough effect; inconclusive = small, poorly fitted or top-dose-only effect, or effect the other way; inactive = flat fitted curve, though single readings scatter; tested in HEK293 cells; about a fifth of its hits are not listed in these tables; also: % is scaled to controls: 0 for no effect and ±100 for the full control effect; luciferase read-out
RE007 growth inh = less growth of the S. pombe RE007 Vpr strain | S. pombe RE007 Vpr strain, BacTiter-Glo ATP luminescence, 24 h; control for the full effect not named in the record | Potency, µM (series often up to 92.2 µM), for inactives: at the top dose activity change, negative = less growth | 0.21% of 360,000 active; active = well fitted falling curve with a large enough effect; inconclusive = small, poorly fitted or top-dose-only effect; inactive = no such curve, though single readings can be large or run the other way;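 also: % is scaled to controls: 0 for no effect and ±100 for the full control effect; nearly all actives have a fitted effect of over 50% in size; the assay follows cell death caused by Vpr and the record does not say whether a fall means rescue or toxicity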
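Fission yeast strain RE007, carrying one chromosomally integrated HIV-1 vpr copy, was seeded at OD 0.01 in PMG+AL medium with 23 nL pinned compound. After 24 h at 30 °C and 99% humidity, viability was read by BacTiter-Glo luminescence.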
LASV entry inh = inhibitors of Lassa virus binding or cell entry | Lassa virus pseudotype entry inhibition, cell reporter; control for the full effect not named in the record | Potency, µM (series often up to 37.9 µM), for inactives: top-dose activity change, negative = inhibition, usual class: inhibitors | 1.2% of 300,000 active; active means well fitted inhibition curve with a large enough effect; inconclusive means small, poorly fitted or top-dose-only effect, or effect the other way; inactive means flat fitted curve, though single readings scatter; tested in HEK293 cells; also: % is scaled to controls: 0 for no effect and ±100 for the full control effect; nearly all actives have a fitted effect of over 50% in size; luciferase read-out
Cruzain inh Det = blocks cruzain activity in presence of Triton detergent. P25779. purified cruzain, Z-FR-AMC fluorescence, 0.01% Triton. 0.43% of 200,000 active. Potency, µM, inactives show max response, negative = inhibition, usual class: inhibitors;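 also: plate controls were neutral wells for no effect and buffer without enzyme for full effect; nearly all actives have a fitted effect of over 40% in size; top concentration of the series not given in the record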
Target sequence (P25779 123-467 limits assumed): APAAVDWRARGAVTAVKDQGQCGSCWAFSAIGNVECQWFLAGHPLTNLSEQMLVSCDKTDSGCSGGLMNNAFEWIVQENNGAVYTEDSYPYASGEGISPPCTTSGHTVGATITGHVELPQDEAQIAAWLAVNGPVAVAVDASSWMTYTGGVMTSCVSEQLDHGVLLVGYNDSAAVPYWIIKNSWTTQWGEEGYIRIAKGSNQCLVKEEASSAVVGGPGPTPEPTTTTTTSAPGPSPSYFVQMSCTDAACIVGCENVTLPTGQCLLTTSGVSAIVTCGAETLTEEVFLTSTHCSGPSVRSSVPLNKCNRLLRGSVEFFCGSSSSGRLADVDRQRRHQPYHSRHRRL
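Detergent-containing run (0.01% Triton X-100) in acetate buffer pH 5.5 with 5 mM DTT: enzyme at 1.5 nM final, 15 min compound preincubation at room temperature, then 2 uM Z-FR-AMC substrate. Activity taken as 60 s fluorescence increase at 360/450 nm.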
NS1 function inh = influenza NS1 inhibition. S. cerevisiae slowed by influenza A NS1, growth recovery by OD600. Potency, µM (series often up to 46.1 µM), without a hit: at the highest dose activity, positive = more growth. 0.4% of 270,000 active. AID 2326; active means well fitted rising curve with a large enough effect; inconclusive means small, poorly fitted or top-dose-only effect; inactive means no such curve, though single readings can be large or run the other way; also: nearly all actives have a fitted effect of over 50% in size
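Recovery from NS1-induced slow growth read by OD600 in budding yeast switched to galactose assay medium (pH 6.0, -URA) at 1:100 dilution. Compound 23 nl per well; the matching strain lacking NS1 serves as control.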
Cruzain noTriton = inhibitors of Trypanosoma cruzi cruzain without detergent. purified cruzain, Z-FR-AMC fluorescence, no detergent. Potency, µM, for the others: max response, negative = inhibition, hits mostly inhibitors. 2.3% of 200,000 active. P25779;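 also: plate controls were enzyme without inhibitor for no effect and buffer without enzyme for full effect; nearly all actives have a fitted effect of over 40% in size; top concentration of the series not given in the record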
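Detergent-free condition (0.00005% Triton X-100) in acetate buffer pH 5.5 with DTT. 1.5 nM enzyme and compound were pre-mixed 15 min, then 2 uM Z-FR-AMC substrate added; reaction progress from fluorescence change between first and third reads (60 s).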
An asterisk follows results filed as active; ? = inconclusive; / = not tested or not shown; & = joins results of further samples; [ ] = dose if it differs, or a comment. Unless noted, calls follow the shape of the dose curve; as a rule, active = well fitted curve in the direction sought with a large enough effect; inconclusive = small, poorly fitted or top-dose-only effect, or another doubt; inactive = no such curve, though single readings can be large; an effect the other way counts as inactive or inconclusive. Potency is read from the fitted curve at half-maximal effect.

smiles	SARS PLpro yeast	2A StopGo	MARV entry inh	RE007 growth inh	LASV entry inh	Cruzain inh Det	NS1 function inh	Cruzain noTriton
Cc1nc(-c2cccc(S(=O)(=O)N3CCOCC3)c2)cs1	7%	/	20%	-5%	10%	-11%	19%	-21%
Cc1ccccc1CN(c1ccc(C(N)=O)cc1)S(C)(=O)=O	3%	15%	6%	10%	12%	2.6%	-1%	-2%
CCOC(=O)c1c(C)[nH]c(C)c1S(=O)(=O)N1CCCC(C(=O)Nc2cccc(CC)c2)C1 (stereo not given)	/	4%	/	/	-19%[46.1 µM]	-3.2%	/	?
CCCN(CCC)CCCNC(=O)CNC(=O)c1nn(-c2ccc(OC)cc2)c(=O)c2ccccc12	1%	-13%	4%[46.1 µM]	4%	?	/	-7%	/
CC(C)c1ccc(NC(=O)C2C3C=CC4(O3)C2C(=O)N(CCCN2CCCCC2)C4C(=O)NC2CCCCC2)cc1 (stereo not given)	3%	-10%	3%[46.1 µM]	1%	/	/	5%	/
O=c1c2sccc2n(Cc2cccc(F)c2)c(=O)n1-c1ccc(F)cc1	19%	-19%	?	2%	2%	-2.1%	1%	-9%
O=C(NC(=S)Nc1ccc(Br)cn1)c1cncc(Br)c1	-2%	29%	15%	-4%	4%	-3.7%	-7%	?
COc1cc(OC)c(N(C)C(=O)c2sc3nc4n(c(=O)c3c2C)CCCCC4)cc1Cl	/	16%	/	/	-1%[46.1 µM]	-4.3%	/	20%
COc1ccc2c(O)c(-c3c(C)cc(C)cc3C)c(=O)[nH]c2c1	/	-17%	1%[14.2 µM]	10%	-7%	/	/	/
CC(C)(CCC(=S)N1CCOCC1)c1ccccc1	/	7%	15%[46.1 µM]	0%	3%[46.1 µM]	/	/	/
CN(C(=O)Cn1c(=O)n(CCCS(=O)(=O)C2CCCCC2)c(=O)c2ccccc21)c1ccccc1	/	-14%	1%[46.1 µM]	/	-7%[46.1 µM]	-1.2%	/	6%
CC/S(CC1CC1(Cl)Cl)=N\S(=O)(=O)c1ccc(C)cc1 (stereo not given)	3%	21%	-4%	4%	-15%	6.3%	4%	4%
Cc1c(N(C(=O)Cc2cccs2)C2(C(=O)NC3CCCC3)CCCCC2)c(=O)n(-c2ccccc2)n1C	-4%	11%	5%[46.1 µM]	-8%	1%	/	/	/
Oc1ccc(C2C(c3ccccc3)=NN=C(c3ccc(Cl)cc3)N2O)c(O)c1 (stereo not given)	13%	19%	18%	3%	-4%	-5.3%	18%	?
O=C(Nc1ccc(O)c(-c2nc3ccccc3o2)c1)C1(c2ccc(Br)cc2)CCCC1	6%	-21%	?	1%	-18%	0.3%	-2%	5µM*
CNC(=O)CCn1nc(-c2ccccc2)c2ccccc2c1=O	-2%	7%	3%&3%	-2%	-6%	1.0%	5%	-1%
CCCCSC1=C(C#N)C(c2ccccc2C)CC(=O)N1 (stereo not given)	-3%	?	/	-4%	/	1.0%	0%	8%
CCOc1ccccc1NC(=O)C1CCN(C(=O)C2CC(=O)N(c3ccc(C)cc3)C2)CC1 (stereo not given)	-4%	8%	?	-3%	6%[46.1 µM]	/	-6%	/
CC(C)CNC(=O)CSc1nc2nn(-c3ccccc3)c(=O)c-2c2n1CCCCC2	0%	5%	-2%[46.1 µM]	18%	-9%	/	/	/
O=C(NCC1CCCO1)c1cccc(C(=O)NCC2CCCO2)c1 (stereo not given)	-3%	-1%	/	16%	/	/	-5%	/
Cn1cc(CN(C(=O)Nc2ccc(Cl)c(Cl)c2)C2CCCCC2)c2ccccc21	/	37%[activator]	-3%[46.1 µM]	/	0%[46.1 µM]	-1.1%	/	-7%
O=C(O)c1ccccc1C(=O)c1ccc2c(c1)CCC2	0%	8%	-22%[46.1 µM]	5%	4%[46.1 µM]	/	0%	/
Cc1cc2c(c(SCC(=O)NCCc3ccccc3)n1)C(=O)OC2	6%	-2%	20%	-2%	2%	4.2%	-13%	-3%
C=CCC1NS(=O)(=O)OC(COC)C1C (stereo not given)	6%	10%	/	12%	/	/	11%	/
COc1cc(C(CC(=O)Nc2ccc(Cl)cn2)N2Cc3ccccc3C2=O)cc(OC)c1OC (stereo not given)	-1%	14%	/	3%	/	/	4%	/
CC(=O)OCC(=O)NCC(=O)c1c[nH]c2ccccc12	9%	8%	3%	14%	8%	0.2%	25%	-7%
Cc1ccc(NC(=O)CN(C)C(=O)CSc2nncn2C)cc1	1%	-10%	1%[46.1 µM]	12%	10%	4.0%	1%	-2%
Cc1c(Cc2ccccc2)sc(N)c1C(N)=O	0%	/	-1%	/	/	-5.7%	7%	?
C=CC(O)(C#CCN(CC)CC)c1ccccc1 (stereo not given)	-1%	9%	0%	-2%	12%	-1.0%	1%	0%
CC(=O)NC(Cc1ccc(F)c(F)c1)C(=O)NC1CCN(c2nnnn2-c2ccccc2)CC1 (stereo not given)	1%	-2%	-6%	-2%	?	/	-7%	/
Cc1cc(N2CCOCC2)nc2cc(O)ccc12	-2%	55%[activator]	/	-13%	/	-5.6%	-6%	3%
Cc1c(Cl)cccc1NC(=O)Cn1cccc1	-1%	19%	1%	-13%	?	2.3%	-2%	6%
O=C(NCCC1=CCCCC1)c1ccc2c(=O)n3nc(Nc4ccccc4)sc3nc2c1	/	-21%	/	/	11%[46.1 µM]	0.7%	/	0%
Cc1ccsc1/C=N/NC(=O)CNC(=O)c1cccc([N+](=O)[O-])c1C	0%	-5%	/	1%	/	/	9%	/
CCOc1ccccc1CN(CCc1ccc2c(c1)OCO2)Cc1cc(OC)c(OC)cc1OC	/	-22%	10µM*	/	?	-2.9%	/	2%
O=C(CCCN1C(=O)c2cccnc2C1=O)N1CC(=O)N(CCc2ccccc2)C(=O)C1	0%	15%	5%	0%	12%	2.6%	-8%	8%
Cc1cc(C)c2c(=O)cc(C(=O)Nc3ccc(S(=O)(=O)N(C)Cc4ccccc4)cc3)oc2c1	/	-20%	?	/	8%[46.1 µM]	-0.2%	/	-2%
CC(OC(=O)c1cc(=O)c2cc(Cl)ccc2o1)C(=O)N1CCCC1 (stereo not given)	8%	-11%	13%[46.1 µM]	16%	1%	/	/	/
CN1C[C@@H]2C(c3ccc(Cl)nc3)C3(c4cccnc4)CC2(C3)[C@H]1c1ccccc1 (stereo not given in full)	2%	-16%	/	9%	/	2.9%	-1%	-3%
CCc1ccc(NS(=O)(=O)c2ccc3[nH]c(=O)[nH]c3c2)cc1	-1%	1%	-4%[46.1 µM]	-20%	16%[46.1 µM]	/	1%	/
C=CCn1c(-c2ccc(N)cc2)nc2ccccc21	-1%	20%	/	1%	/	2.1%	-10%	-13%
CC1(C(=O)NCc2ccc(Cl)c(Cl)c2)Oc2cccnc2NC1=O (stereo not given)	2%	?	22%[46.1 µM]	-16%	-6%	/	-4%	/
O=C(C(=O)N1CCN(c2ccccc2)CC1)c1c[nH]c2ccccc12	-1%	7%	-7%	4%	-10%	/	-9%	/
O=C(CSc1nnc(COc2cccc3cccnc23)o1)N1CCc2ccccc21	4%	/	0%	1%	7%	0.2%	-1%	13%
COc1ccccc1NC(=O)c1cc(S(=O)(=O)NCCc2ccccc2)ccc1F	/	66%[activator]	/	/	-15%[46.1 µM]	-4.2%	/	6%
COc1ccc(OC)c(N(CC(=O)N2CCCC2)S(=O)(=O)c2ccc(C)cc2)c1	0%	58%[activator]	6%[46.1 µM]	-7%	/	/	-4%	/
COc1ccc(C2=NC3(CCCCC3)N(CC(=O)Nc3ccc(C(C)C)cc3)C2=O)cc1	/	?	11µM*	/	?	-2.9%	/	-28%
Cc1cc(C)c(OCCCCNCc2ccccc2)c(Cl)c1	1%	0%	?	19%	?	4.8%	-24%	-4%

Looked up above:
`O=C(CSc1nnc(COc2cccc3cccnc23)o1)N1CCc2ccccc21` in LASV entry inh is entered as 7%
`CC1(C(=O)NCc2ccc(Cl)c(Cl)c2)Oc2cccnc2NC1=O` (stereo not given) in SARS PLpro yeast is entered as 2%
`O=C(C(=O)N1CCN(c2ccccc2)CC1)c1c[nH]c2ccccc12` in 2A StopGo is entered as 7%
`Cc1cc(C)c(OCCCCNCc2ccccc2)c(Cl)c1` in Cruzain noTriton is entered as -4%
`COc1ccccc1NC(=O)c1cc(S(=O)(=O)NCCc2ccccc2)ccc1F` in Cruzain inh Det is entered as -4.2%

The listing continues.
smiles	SARS PLpro yeast	2A StopGo	MARV entry inh	RE007 growth inh	LASV entry inh	Cruzain inh Det	NS1 function inh	Cruzain noTriton
COc1cc(NC2CCCCC2O)c2nc(-c3ccc(Cl)cc3)ccc2c1 (stereo not given)	-2%	28%	/	9%	/	/	20%	/
CCc1nn(C(C)C(=O)NCCN2CCCCCC2)c(=O)c2cc3occc3n12 (stereo not given)	3%	-6%	?	0%	-5%[46.1 µM]	/	10%	/
CS(=O)(=O)N(CC(=O)N/N=C/c1ccco1)c1ccccc1Br	-7%	-5%	12%	29%	14%	-4.4%	0%	6%
CCCc1cc(C(=O)NCc2ccccc2)no1	-10%	88%[activator]	/	6%	/	-2.8%	-5%	6%

Random excerpt: 2 records from the list.
smiles	SARS PLpro yeast	2A StopGo	MARV entry inh	RE007 growth inh	LASV entry inh	Cruzain inh Det	NS1 function inh	Cruzain noTriton
CCCc1cc(C(=O)NCc2ccccc2)no1	-10%	88%[activator]	/	6%	/	-2.8%	-5%	6%
COc1cc(NC2CCCCC2O)c2nc(-c3ccc(Cl)cc3)ccc2c1 (stereo not given)	-2%	28%	/	9%	/	/	20%	/

Screens deposited in PubChem by National Center for Advancing Translational Sciences (NCATS).
